# High-throughput results as filed in PubChem BioAssay.
# HPGD inh: qHTS Assay for Inhibitors of HPGD (15-Hydroxyprostaglandin Dehydrogenase); 15-hydroxyprostaglandin dehydrogenase [NAD(+)] (Homo sapiens), P15428; purified HPGD, NADH fluorescence kinetic, PGE2 substrate; Potency, µM, without a hit: at the top dose activity change, negative = inhibition, actives largely listed as inhibitors; 150,000 tested, 4.3% active; active = well fitted inhibition curve with a large enough effect (not every such curve was filed as active); inconclusive = small, poorly fitted or top-dose-only effect, or another doubt; inactive = no such curve, though single readings can be large or run the other way;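 also: top concentration of the series not given in the record; plate controls included wells without enzyme; inactives centre near -10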
# Target sequence (P15428 whole entry, looked up): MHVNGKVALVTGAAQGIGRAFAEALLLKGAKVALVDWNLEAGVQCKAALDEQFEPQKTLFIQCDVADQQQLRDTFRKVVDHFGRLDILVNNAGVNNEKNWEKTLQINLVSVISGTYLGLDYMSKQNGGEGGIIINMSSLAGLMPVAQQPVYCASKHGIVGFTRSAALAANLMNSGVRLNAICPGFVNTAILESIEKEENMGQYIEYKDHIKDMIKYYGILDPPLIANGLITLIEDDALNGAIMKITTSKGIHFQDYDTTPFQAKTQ
#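 NADH formation kinetics: reaction with 30 uM PGE2 and 1 mM NAD+ (final), 20 nM enzyme, Tris-HCl pH 8 with Tween 20, after 15 min compound preincubation at room temperature. Fluorescence change, last versus first of five reads.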
# Active calls of the source: *; ? = inconclusive; & = joins results of further samples; [ ] = remark or other dose. % is scaled to controls: 0 for no effect and ±100 for the full control effect; potency is read from the fitted curve at half-maximal effect. This is a subset. The share of hits here may be higher or lower than overall.
CC(C)[C@@H](CC(=O)N[C@@H]1CCNC[C@H]1C(=O)N[C@H](CC(=O)N[C@@H](CCC(=O)O)CC(=O)O)Cc1c[nH]c2ccccc12)NC(=O)C[C@H](Cc1ccccc1)NC(=O)[C@@H]1CCCC[C@H]1N
- HPGD inh: -10%

COC(=O)CCC(=O)NC(=S)Nc1ccc(S(=O)(=O)Nc2cc(OC)nc(OC)n2)cc1
- HPGD inh: -1%

CC(=O)NC(C)c1ccc(Cl)c(Cl)c1 (stereo not drawn)
- HPGD inh: -1%

COc1ccc(N(C(=O)COc2ccccc2)C2C=CS(=O)(=O)C2)cc1 (stereo not drawn)
- HPGD inh: -4%

Cc1ccc(C2=N/C(=C\N3CCCCC3)C(=O)O2)cc1
- HPGD inh: ?

CCOc1cc(/C=N/NC(=O)OC)ccc1OCCSc1ccc(Cl)cc1
- HPGD inh: -12%

O=C(O)C(Cl)(c1ccccc1)c1ccccc1
- HPGD inh: -4%

COc1ccc(N2C3=[N+](CCCC3)CC2(C)O)cc1 (stereo not drawn)
- HPGD inh: -4%

CCn1c(SCC(=O)N2CCCCC2)nnc1-c1ccc(S(=O)(=O)N2CCN(C)CC2)cc1
- HPGD inh: ?

Cc1ccc(-c2c(C#N)c(N)n(-c3ccccc3)c(=O)c2C#N)cc1
- HPGD inh: ?

O=C(c1cccc(S(=O)(=O)N2CCCCC2)c1)N1CCOCC1
- HPGD inh: -4%

CCOC(=O)C1Cn2c(nc3c(c2=O)C2(CCCC2)Cc2ccccc2-3)S1 (stereo not drawn)
- HPGD inh: ?

COC(=O)C1=C(N)Oc2cc(C)n(Cc3cccnc3)c(=O)c2C1c1cccc(OC)c1OC (stereo not drawn)
- HPGD inh: -2%

N#CCN1C(=S)N=C(Nc2cccc(Cl)c2)C12CCCCC2
- HPGD inh: -14%

CCN(CCNC(=O)C1CCN(S(=O)(=O)c2cccc3cccnc23)CC1)c1ccccc1
- HPGD inh: -18%

COC(=O)c1cccc2c1-c1ccccc1/C2=N/O
- HPGD inh: -25%

O=C(Cn1nc(CNc2ccc(Cl)cc2)[n+]2c1CCCCC2)c1ccccc1
- HPGD inh: -2%

O=C(NCc1ccccc1)N1CCN(c2ccccc2F)CC1
- HPGD inh: 1%

CCC1C(C#N)=C(SC)NC2=C1C(=O)CC(C)(C)C2 (stereo not drawn)
- HPGD inh: -21%

O=C(CN1C(=O)C2C3CC(C(Br)C3Br)C2C1=O)N1CCOCC1 (stereo not drawn)
- HPGD inh: -1%

CC1CCCCN1CCn1c(=S)[nH]c2ncccc2c1=O (stereo not drawn)
- HPGD inh: -4%

O=C(/C=C/c1ccc(OC2CSC2)cc1)c1ccc(Cl)cc1
- HPGD inh: -14%

CCCCn1c(=O)[nH]c(=O)c2c1nc(COc1ccc(C#N)cc1)n2CCC
- HPGD inh: -10%

N=C1C(c2nc3ccccc3c(=O)[nH]2)=C(O)CN1CCO
- HPGD inh: ?

CC1(C)CC(=O)c2sc(NC(=O)CN3CCCCC3)nc2C1
- HPGD inh: -20%

O=C(NCc1cccs1)C1CCC(CNS(=O)(=O)c2ccc(Br)s2)CC1 (stereo not drawn)
- HPGD inh: -2%

O=[N+]([O-])c1ccc(C2Oc3ccccc3C3CC(c4ccccc4)=NN32)s1 (stereo not drawn)
- HPGD inh: -30%

Cc1ccc(S(=O)(=O)N/N=C\c2cc([N+](=O)[O-])ccc2Cl)cc1
- HPGD inh: -11%

Cc1nc(SCc2ccccc2)c([N+](=O)[O-])[nH]1
- HPGD inh: -11%

CCC(c1nnnn1C(C)(C)C)N1CCN(c2cc(Cl)ccc2C)CC1 (stereo not drawn)
- HPGD inh: -20%

COc1ccccc1C(=O)Nc1ccccc1N1CCN(S(C)(=O)=O)CC1
- HPGD inh: ?

COc1ccc2cc(C)c3nnc(SCC(=O)Nc4nc(-c5ccccc5)cs4)n3c2c1
- HPGD inh: -18%

CC1=CCC(C(=O)O)(C(=O)N/N=C/c2cccs2)C(c2ccc(F)cc2)C1 (stereo not drawn)
- HPGD inh: -6%

Cc1cccc(C)c1NC(=O)c1sccc1SCC#N
- HPGD inh: -15%

CC(C(=O)NC1=NCCS1)(C(F)(F)F)C(F)(F)F
- HPGD inh: 0%

CC(=O)c1cccc(NC(=O)N2CCC(c3nnc(SCC(N)=O)n3C)CC2)c1
- HPGD inh: -6%

N#Cc1nc(-c2ccccc2)oc1N1CCCCC1
- HPGD inh: ?

CC(C)NC(=O)COC(=O)c1ccc(Cl)c(S(=O)(=O)N2CCCC2)c1
- HPGD inh: -2%

COc1ccccc1CNS(=O)(=O)c1cc(C)ccc1OC
- HPGD inh: 6%

Cc1c(C(=O)Nc2ccccn2)oc2ccccc12
- HPGD inh: -9%

COc1cc2ccccc2cc1C(=O)OCC(=O)N1CCOCC1
- HPGD inh: ?

O=C(Nc1ccc(OC(F)F)c(Cl)c1)c1cccc(OC(F)F)c1
- HPGD inh: -24%

CC(C)CCNC(=O)c1cc(-c2ccco2)nc2ccccc12
- HPGD inh: ?

CC1(C)Cc2c(sc3nc(SCC(=O)NCc4ccco4)n(-c4ccccc4)c(=O)c23)CS1
- HPGD inh: -16%

COC(=O)c1ccccc1NC(=S)NC(=O)c1ccc2ccccc2c1
- HPGD inh: -14%

O=C1CCC(=O)O1
- HPGD inh: -2%

O=C(Nc1ccccc1C(=O)NCCCn1ccnc1)c1ccccc1
- HPGD inh: -1%

CCOC(=O)c1ccc(N2Cc3ccccc3C2=NC(=O)c2cccs2)cc1
- HPGD inh: 278%[activator]

Cc1ccc(/C=N/Nc2nnc(Cl)c3ccccc23)cc1
- HPGD inh: 1%

COc1ccc(N2CCN(c3oc(-c4ccc(OC)c(OC)c4)nc3C#N)CC2)cc1
- HPGD inh: ?

CN(C)c1ncc2nc(-c3ccc(Cl)cc3)c(=O)n(C3CC3)c2n1
- HPGD inh: ?

CCOC(=O)c1c(C)nc(-c2ccccc2)nc1N
- HPGD inh: -1%

Cn1cc(S(=O)(=O)Nc2cccc(F)c2)c(=O)n(C)c1=O
- HPGD inh: -9%

C/C(CCC1CC(C)OC1=O)=N/Nc1nc(-c2ccccc2)cs1 (stereo not drawn)
- HPGD inh: -24%

Cc1nn(-c2ccccc2)c(N2CCCC2)c1/C=N/n1cnc2scc(-c3ccccc3)c2c1=O
- HPGD inh: 402%[activator]

CSC1=N/C(=C\c2ccc(F)cc2)C(=O)S1
- HPGD inh: -7%

CCOc1cc(NC(=O)c2ccco2)c(OCC)cc1NC(=O)Cc1ccc(OC)c(OC)c1
- HPGD inh: ?

COc1ccccc1CNc1ccc(N2CCCCC2)cc1
- HPGD inh: -18%

CC(C)NC(=O)CSc1nnc(-c2ccc(S(=O)(=O)N3CCCC3)cc2)n1CC1CCCO1 (stereo not drawn)
- HPGD inh: -7%

CN(C)c1ccc(NC(=O)Nc2ccc3snnc3c2)cc1
- HPGD inh: -7%

Cc1ccc(NC(=S)N2CCN(C(=O)C3CCCO3)CC2)cc1 (stereo not drawn)
- HPGD inh: -10%

CCOC(=O)c1cnc2ccc(OC)cc2c1Nc1ccc2c(c1)OCCO2
- HPGD inh: -17%

COc1ccc(C(=O)Cn2nnc(-c3ccccc3NC(=O)C(F)(F)F)n2)cc1
- HPGD inh: -6%

CCCC(=O)Nc1cc(-c2nc3ncccc3o2)ccc1C
- HPGD inh: ?

O=C1c2ccccc2C(Nc2ccc3c(c2)OCCO3)N1Cc1ccc2c(c1)OCO2 (stereo not drawn)
- HPGD inh: -19%

CC(=O)c1cnc(Nc2ccccc2)s1
- HPGD inh: -15%

O=C(CCCN1CCC(O)(c2ccc(Cl)cc2)CC1)c1ccc(F)cc1
- HPGD inh: -11%&-4%&-10%&-3%&-2%

C=CCOC(=O)C1=C(C)N(C)C(=O)NC1c1cc2c(cc1Br)OCO2 (stereo not drawn)
- HPGD inh: -5%

O=C(NC12CC3CC(CC(C3)C1)C2)C1CC(=O)N(c2ccccc2)C1 (stereo not drawn)
- HPGD inh: -1%

C#CCn1c(=NC(=O)c2ccc(S(=O)(=O)N3CCCc4ccccc43)cc2)sc2cc(S(N)(=O)=O)ccc21
- HPGD inh: -7%

Cc1nc2nc(SCC(=O)N3CCOCC3)nn2c(C)c1Cc1c(F)cccc1Cl
- HPGD inh: 8.9µM*

CC1CCC(Nc2nnnn2-c2ccccc2)CC1 (stereo not drawn)
- HPGD inh: -8%

COC(=O)C(NC(=O)c1ccco1)(Nc1nc(C2CC2)cs1)C(F)(F)F (stereo not drawn)
- HPGD inh: -17%

O=C(O)c1ccc(COc2ccc3ccccc3c2/C=C2/NC(=O)N(c3ccccc3)C2=O)cc1
- HPGD inh: ?

Cc1cc(C(=O)Cn2nc(C(=O)O)c3ccccc3c2=O)c(C)n1-c1ccc(F)cc1
- HPGD inh: -25%

# Ordered by the number under HPGD inh (ascending): some entries from above
COC(=O)C(NC(=O)c1ccco1)(Nc1nc(C2CC2)cs1)C(F)(F)F (stereo not drawn)
- HPGD inh: -17%

C#CCn1c(=NC(=O)c2ccc(S(=O)(=O)N3CCCc4ccccc43)cc2)sc2cc(S(N)(=O)=O)ccc21
- HPGD inh: -7%

COc1ccc(C(=O)Cn2nnc(-c3ccccc3NC(=O)C(F)(F)F)n2)cc1
- HPGD inh: -6%

# The listing continues:
O=C(COc1ccccc1Cl)Nc1cc(Cl)ccc1Oc1ccccc1
- HPGD inh: -7%

CCc1ccccc1NC(=O)c1cccc(N2C(=O)C3C4CCC(C4)C3C2=O)c1 (stereo not drawn)
- HPGD inh: -11%

O=C(/C(=C/c1ccc(Cl)cc1)c1nc2ccccc2[nH]1)c1ccccc1
- HPGD inh: -21%

S=C(NCc1ccccc1Cl)NC1CCCC1
- HPGD inh: -26%

Cc1cc2c(c(=O)n1CCN(C)C)C(c1ccc(Br)cc1)C(C#N)=C(N)O2 (stereo not drawn)
- HPGD inh: -6%

O=C(c1ccco1)N1CCN(C(=O)c2cccc3c2C(=O)N(Cc2cccnc2)C3)CC1
- HPGD inh: -4%

CCCCOc1ccc(-c2nnn(CC(=O)NCCc3c[nH]c4ccccc34)n2)cc1
- HPGD inh: -1%

Cc1cccc(-n2nnc(C(=O)NCc3ccccc3)c2N)c1
- HPGD inh: -6%

O=C(CNS(=O)(=O)c1cccc2nsnc12)NC1CCCCC1
- HPGD inh: -13%

O=C(Nc1ccc2c(c1)Cc1ccccc1-2)c1ccc(Br)o1
- HPGD inh: -8%

CCCn1c(CCC(=O)O)ccc1-c1cccs1
- HPGD inh: ?

O=C(COc1ccccc1)NC(NC(=S)Nc1ccccc1C(=O)O)C(Cl)(Cl)Cl (stereo not drawn)
- HPGD inh: -24%

CN1CC2(C(=O)c3ccccc3)CN(C)CC(C(=O)c3ccccc3)(C1)C2
- HPGD inh: -17%

O=C(CCCOc1ccccc1)N1CCCc2ccccc21
- HPGD inh: -9%

Cc1cc(C)c(NC(=O)C2CSCCS2)c(C)c1 (stereo not drawn)
- HPGD inh: 22µM*

S=C(NCCCc1ccccc1)Nc1ccc(Cl)cc1
- HPGD inh: -1%

Cc1ccc(O)c(NC(=O)c2cc3nc4c(c(C(F)(F)F)n3n2)CCc2ccccc2-4)c1
- HPGD inh: -25%

COc1ccc(CNC(=O)c2cccs2)cc1
- HPGD inh: 14µM*

Cc1ccccc1CN(C)CC(=O)Nc1ccccc1Oc1ccccc1
- HPGD inh: -3%

COc1ccc(CNC(=O)C(NC(C)=O)C(=O)Nc2ccc(OC)cc2)cc1 (stereo not drawn)
- HPGD inh: -4%

COC(=O)c1cc(Nc2cc(C)nc3ncnn23)cc(C(=O)OC)c1
- HPGD inh: ?

COc1ccc(OC)c(-n2cnc3cc(C(=O)NCCCN4CCOCC4)ccc32)c1
- HPGD inh: 25µM*

O=C(CCN1CCc2ccccc21)c1ccc2c(c1)OCCO2
- HPGD inh: -10%

O=C1c2ccccc2C(=O)N1CCCc1c[nH]c2ccc(Cl)cc12
- HPGD inh: -10%

N#Cc1c(C(F)(F)F)cc(-c2ccc(Cl)c(Cl)c2)nc1SCCN1CCOCC1
- HPGD inh: 25µM*

COCCn1c(CN2CCN(C)CC2)nc2c1c(=O)n(C)c(=O)n2C
- HPGD inh: -4%

CCCN1C(=O)/C(=C/c2c(NCCCOC(C)C)nc3c(C)cccn3c2=O)SC1=S
- HPGD inh: -4%

# Entries shown so far that contain two or more sulfur atoms:
COC(=O)CCC(=O)NC(=S)Nc1ccc(S(=O)(=O)Nc2cc(OC)nc(OC)n2)cc1
- HPGD inh: -1%

CCn1c(SCC(=O)N2CCCCC2)nnc1-c1ccc(S(=O)(=O)N2CCN(C)CC2)cc1
- HPGD inh: ?

O=C(NCc1cccs1)C1CCC(CNS(=O)(=O)c2ccc(Br)s2)CC1 (stereo not drawn)
- HPGD inh: -2%

COc1ccc2cc(C)c3nnc(SCC(=O)Nc4nc(-c5ccccc5)cs4)n3c2c1
- HPGD inh: -18%

Cc1cccc(C)c1NC(=O)c1sccc1SCC#N
- HPGD inh: -15%

CC1(C)Cc2c(sc3nc(SCC(=O)NCc4ccco4)n(-c4ccccc4)c(=O)c23)CS1
- HPGD inh: -16%

CSC1=N/C(=C\c2ccc(F)cc2)C(=O)S1
- HPGD inh: -7%

CC(C)NC(=O)CSc1nnc(-c2ccc(S(=O)(=O)N3CCCC3)cc2)n1CC1CCCO1 (stereo not drawn)
- HPGD inh: -7%

C#CCn1c(=NC(=O)c2ccc(S(=O)(=O)N3CCCc4ccccc43)cc2)sc2cc(S(N)(=O)=O)ccc21
- HPGD inh: -7%

O=C(CNS(=O)(=O)c1cccc2nsnc12)NC1CCCCC1
- HPGD inh: -13%

Cc1cc(C)c(NC(=O)C2CSCCS2)c(C)c1 (stereo not drawn)
- HPGD inh: 22µM*

CCCN1C(=O)/C(=C/c2c(NCCCOC(C)C)nc3c(C)cccn3c2=O)SC1=S
- HPGD inh: -4%
